MgrA DNA FP – S. aureus MgrA-DNA binding modulation; fluorescence polarization; inhibition, %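 (about 10 µg/mL by stock and volumes)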; 84,000 tested, 0.13% active; AID 602314;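 active means above 50% in either of two replicates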;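 further: 0% = protein plus DNA without compound and 100% = DNA alone without protein; higher means less MgrA bound to DNA so lower polarization; one replicate is shown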
S aureus helic – blocks Staphylococcus aureus DNA helicase | purified S. aureus helicase, fluorescence unwinding assay; about half of the hits fall short of the stated cut | 120,000 tested, 0.05% active | inhibition, %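 (tested at about 80 µM)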 | AID 485395;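 active means both duplicates at 50% or more, or one of them with a favoured structure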;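 further: 0% = mean of negative control wells and 100% = mean of positive control wells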
Numbers without * were called inactive; . = not tested or not shown; & = joins results of further samples.

nr	MgrA DNA FP	S aureus helic	smiles
1	.	-12	O=C(CN1CC(c2ccccc2)CC1=O)OCc1ccccc1F (stereo unspecified)
2	.	11	Cc1cc2cc(CNC(=O)CCc3ccccc3)ccc2[nH]1
3	0.1	15	COC(CNC(=O)c1ccc2c(Cl)c3c(nc2c1)CCCC3)OC
4	-0.2	.	CC(Sc1nc2ccccc2[nH]1)C(=O)O (stereo unspecified)
5	3.5	6	COC(=O)CN1C(=O)S/C(=C/c2cc(C)n(C)c2C)C1=O
6	-0.4	3	Cc1ccc(S(=O)(=O)N2CC3C=CC2C3)cc1 (stereo unspecified)
7	.	-14	Cc1c(Cl)cccc1NC1OC(=O)c2ccccc21 (stereo unspecified)
8	-1.0	9	O=C(Nc1cccc(F)c1)NC1(C(=O)NCc2ccco2)CCCCC1
9	3.7	-3	Cc1csc(N/N=C\CCc2ccccc2)n1
10	.	-6	CC(=O)NCc1ccc(C(=O)CSc2nnc(C3CC3)n2C2CC2)cc1
11	-1.1	12	CC(C)(C)c1ccc(Cn2c(=N)n(CC(=O)O)c3ccccc32)cc1
12	-1.2	3	CCC1C(=O)NCCN1C(=O)c1ccc(-c2ccccc2)cc1 (stereo unspecified)

Other entries follow.
nr	MgrA DNA FP	S aureus helic	smiles
13	4.4	.	CC1=NN(c2ccc(N=Cc3ccc(N(C)C)cc3)cc2)C(=O)C1
14	-1.4	.	Cc1cccc(-c2ncc(S(=O)(=O)C(C)(C)C)c(N)n2)c1
15	0.8	.	Cc1cc(=O)n2[nH]c(C(=O)O)nc2n1
16	1.6	21	CCN1C(=O)c2ccc(C(=O)Nc3ccc(O)cc3C)cc2C1=O
17	-0.1	6	O=C(Cn1c2c(c(-c3ccccc3Cl)cc1=O)CCC2)NCc1cccs1
18	.	-14	Cc1c(NC(=O)O/N=C(/N)c2ccccc2)sc2nc(-c3ccc(Cl)cc3)nn12
19	.	-5	CCn1c(SCC(=O)Nc2ccccc2)nc2c(c1=O)SC(C)C2 (stereo unspecified)
20	-0.8	.	Cc1ccc2[nH]c3c(c2c1)CCN(C)C3
21	-1.6&0.6	.	O=C1C(=O)c2ccccc2C(O)=C1C1CCC(c2ccc(Cl)cc2)CC1 (stereo unspecified)
22	.	-15	O=C1CC(c2ccc3c(c2)OCCO3)Oc2ccccc21 (stereo unspecified)
23	4.0	3	Cc1ccc(OCCN2CCN(c3ncnc4scc(-c5ccccc5)c34)CC2)cc1
24	2.8	2	Cc1cccc(Oc2coc3cc(OC(=O)c4cccnc4)ccc3c2=O)c1

Quoted from the listing:
CCn1c(SCC(=O)Nc2ccccc2)nc2c(c1=O)SC(C)C2 (stereo unspecified) – S aureus helic = -5
O=C1C(=O)c2ccccc2C(O)=C1C1CCC(c2ccc(Cl)cc2)CC1 (stereo unspecified) – MgrA DNA FP = -1.6&0.6
Cc1cccc(-c2ncc(S(=O)(=O)C(C)(C)C)c(N)n2)c1 – MgrA DNA FP = -1.4
O=C(Cn1c2c(c(-c3ccccc3Cl)cc1=O)CCC2)NCc1cccs1 – MgrA DNA FP = -0.1
CCN1C(=O)c2ccc(C(=O)Nc3ccc(O)cc3C)cc2C1=O – S aureus helic = 21
O=C1CC(c2ccc3c(c2)OCCO3)Oc2ccccc21 (stereo unspecified) – S aureus helic = -15
CC1=NN(c2ccc(N=Cc3ccc(N(C)C)cc3)cc2)C(=O)C1 – MgrA DNA FP = 4.4

Later entries.
nr	MgrA DNA FP	S aureus helic	smiles
25	.	9	O=C(CSC1=NNC(=O)C1C1CC1)Nc1cccc(Br)c1 (stereo unspecified)
26	-0.8	.	COc1ccc(Oc2ccc(/C(N)=C/C#N)cc2)cc1
27	.	5	CCc1ccc2c(c1)C(NC(C)=O)C(=O)N2 (stereo unspecified)
28	23	-81	C=CCN1C(=O)/C(=C/c2cn(C(C)CC)c3ccccc23)C(=O)NC1=S (stereo unspecified)
29	.	2	CC(=O)Oc1ccc(C(=O)COc2ccc(F)cc2)c(O)c1C
30	0.3	-4	CC(Sc1ccc(Cl)cc1)C(=O)NCc1ccc2c(c1)OCO2 (stereo unspecified)
31	.	8	COc1cccc(CN2NS(=O)(=O)c3ccccc3C2=O)c1
32	1.4	-15	CN1C(=O)CCN(C=O)c2ccccc21
33	.	-48	C=Cn1cccc1-c1ccc(OC)cc1
34	-0.4	5	O=C(O)CCC(=O)Nc1ccc(S(=O)(=O)N2CCCC2)cc1
35	0.2	11	CC1CC(C)CN(S(=O)(=O)N2CCCC(C(=O)NC3CCCC(C)C3C)C2)C1 (stereo unspecified)
36	3.3	9	COc1cccc(-n2cc(C(=O)NCCC(C)C)c3ccccc3c2=O)c1

Next part
nr	MgrA DNA FP	S aureus helic	smiles
37	.	-4	Cc1cc(C(=O)NC2CCCC2)c2ccccc2n1
38	.	-12	Cc1ccccc1OCC(O)CN1C(=O)N(CN2C(=O)N(CC(O)COc3ccccc3C)C(=O)C2(C)C)C(C)(C)C1=O (stereo unspecified)
39	.	21	CCOC(=O)Cn1nc2sc3ccccc3n2c(=O)c1=O
40	3.4	19	O=C(NC1CCN(CC(=O)N2CCOCC2)CC1)C1CCCCC1
41	-3.2	1	O=C1CSC(c2ccccc2)N1Cc1ccccc1 (stereo unspecified)
42	3.3	-2	CCOc1ccc(Nc2oc(Cc3ccccc3)nc2C#N)cc1
43	3.4	9	Oc1c(CN2CCN(c3ccccc3)CC2)cc(Cl)c2cccnc12
44	0.4	-17	O=C(NCCc1ccc(S(=O)(=O)N2CCCC2)cc1)c1cccs1
45	0.5	-6	CC(Sc1nc(N)cc(=O)[nH]1)C(=O)Nc1cccc(Cl)c1 (stereo unspecified)
46	3.4	.	CCC1NC(=O)c2cc(S(N)(=O)=O)c(Cl)cc2N1 (stereo unspecified)
47	.	12	C=CCN(CC=C)C(=O)C[n+]1ccc(/C=N/O)cc1
48	.	-21	Cc1ccccc1-c1nnc(CN2CCc3ccccc32)o1

Next part
nr	MgrA DNA FP	S aureus helic	smiles
49	1.8	.	COc1cccc(C2CCCCN(C)C2=O)c1 (stereo unspecified)
50	.	3	N#CC(C#N)C(c1ccccc1)c1c(O)[nH]c(=S)[nH]c1=O (stereo unspecified)
51	-1.4	.	COC(=O)c1sc(SC)c(-c2ccon2)c1C
52	1.1	4	CC(=O)Nc1c(O)c2ccccc2[nH]c1=O
53	-0.9	9	CCOC(=O)NN1C(=O)c2ccccc2NC1c1ccc(OC)cc1 (stereo unspecified)
54	-0.4	0	CC(CN1CCCCC1)OC(=O)c1ccco1 (stereo unspecified)
55	1.6	-4	CCCNC(=O)c1ccc(COc2ccc(C)cc2)o1
56	-2.6	9	Nc1ccc(Cc2ccncc2)cc1
57	.	-6	O=C(NC(Cc1ccccc1)C(=O)NCc1ccco1)c1ccccc1 (stereo unspecified)
58	.	-5	CCCn1nc(C(=O)OCc2cccc(S(=O)(=O)N(C)C)c2)c2ccccc2c1=O
59	19	-105	N#CC1=C(N)SC(N)=C(C#N)C1c1cccc2ccccc12
60	.	4	COCCn1c(=O)[nH]c2cc(C(=O)NCc3ccccc3)ccc2c1=O

Overlap with the part before: three compounds, then new ones.
nr	MgrA DNA FP	S aureus helic	smiles
58	.	-5	CCCn1nc(C(=O)OCc2cccc(S(=O)(=O)N(C)C)c2)c2ccccc2c1=O
59	19	-105	N#CC1=C(N)SC(N)=C(C#N)C1c1cccc2ccccc12
60	.	4	COCCn1c(=O)[nH]c2cc(C(=O)NCc3ccccc3)ccc2c1=O
61	1.9	.	CN1C(c2ccccc2)CC(C)(O)CC1c1ccccc1 (stereo unspecified)
62	-0.7	3	COc1ccc(CN2CCN(Cc3ccco3)CC2)c(OC)c1OC
63	-0.4	-19	CC1CCC(C(C)C)C(OC(=O)CSc2cccc[n+]2[O-])C1 (stereo unspecified)
64	-1.1	11	COC(=O)c1ccccc1Oc1c(F)c(F)nc(N2CCOCC2)c1F
65	.	17	COc1ccc(-c2nnc(SCN3C(=O)c4ccccc4C3=O)n2C(C)C)cc1
66	13	7	COc1ccc(-c2noc(N3CCCCCC3)n2)cc1
67	-1.0	3	COc1cc(NC(=O)/C(=C/c2ccco2)NC(=O)c2ccc(C)c(C)c2)cc(OC)c1OC
68	.	14	Cc1nn(-c2ccccc2)c(N2CCCCC2)c1C=C(C#N)C#N
69	.	-1	CCOc1ccc2nc(NC(=O)c3cccc(OC)c3)sc2c1
70	-1.9	1	COC(CNC(=O)c1ccc(CS(=O)c2ccccc2)o1)OC (stereo unspecified)
71	2.6	.	NNC(=O)[C@H]1C[C@H]1C(=O)NN
72	-1.4	3	O=C(COc1ccccc1)N1CCNC1=O

Continued, starting with the last 3 of the part before.
nr	MgrA DNA FP	S aureus helic	smiles
70	-1.9	1	COC(CNC(=O)c1ccc(CS(=O)c2ccccc2)o1)OC (stereo unspecified)
71	2.6	.	NNC(=O)[C@H]1C[C@H]1C(=O)NN
72	-1.4	3	O=C(COc1ccccc1)N1CCNC1=O
73	2.2	3	CCC(=O)Nc1nc2ccccc2n1CCN1CCOCC1
74	.	-10	O=C(C1CN(Cc2nc(-c3ccc(Cl)cc3)no2)c2ccccc2O1)N1CCOCC1 (stereo unspecified)
75	2.2	-5	CCOc1ccc(OC(=O)c2sc3ncn(CC)c(=O)c3c2C)cc1
76	5.1	12	Cc1ccc(N(C)C(=O)Cn2c(=O)oc3cc(S(=O)(=O)N4CCCC4)ccc32)cc1
77	-0.5	-2	Fc1ccc(Nc2ncnc3sccc23)cc1
78	-2.8	.	Cc1ccc(CSC2=NCC(C)N2)cc1 (stereo unspecified)
79	-1.5	.	Cc1cccc(Cl)c1Oc1ccc(C(F)(F)F)cc1[N+](=O)[O-]
80	.	-24	CC1CC(C)CN(C(=O)c2cc3ccccc3oc2=O)C1 (stereo unspecified)
81	.	23	CCOC(=O)C1=C(Cn2ncc(Cl)c(Cl)c2=O)NC(=O)NC1C (stereo unspecified)
82	-1.6	17	CC(C)c1ccc(S(=O)(=O)N2CCN(S(=O)(=O)c3ccc(C(C)C)cc3)C(C)C2)cc1 (stereo unspecified)
83	-3.1	8	O=C(Cc1cccc2ccccc12)Nc1ccc(CCC(=O)N2CCCC2)cc1
84	0.6	7	O=C(c1cccc(-n2cnnn2)c1)N1CCOCC1

Single records (already shown):
O=C(C1CN(Cc2nc(-c3ccc(Cl)cc3)no2)c2ccccc2O1)N1CCOCC1 (stereo unspecified) is listed with MgrA DNA FP = .; S aureus helic = -10
CCC(=O)Nc1nc2ccccc2n1CCN1CCOCC1 is listed with MgrA DNA FP = 2.2; S aureus helic = 3

(more compounds)
nr	MgrA DNA FP	S aureus helic	smiles
85	-1.8	.	N#CCc1ccc(Oc2ccc(C(F)(F)F)cn2)cc1
86	-1.8	.	COc1ccc([N+](=O)[O-])c(N2CCOCC2)n1
87	3.8	-1	Cn1c(O)c(C=NCC2(C)CC(O)CC(C)(C)C2)c(=O)n(C)c1=S (stereo unspecified)
88	-0.8	.	Cc1cccc(-c2noc(-c3ccc(OC(F)(F)F)cc3)n2)c1
89	0.9	-17	Fc1nc(Nc2ccccc2)c2c(c1Cl)Oc1ccccc1O2
90	.	5	CCCNC(=O)c1c(N)n(-c2ccccc2)c2nc3ccccc3nc12
91	.	-36	CSc1ncc(C(=O)NC(C)c2ccccc2)c(C)n1 (stereo unspecified)
92	.	-13	O=C1CSC(c2cccnc2)N1Cc1cccnc1 (stereo unspecified)
93	1.2	17	CCOC(=O)C1CCN(C(=O)CCc2ccccc2)CC1
94	.	-7	CSCCNC(=O)c1ccccc1N
95	0.6	4	Cc1ccc(-c2cc(C(=O)NCc3cn(C)nc3C)c3cc(Br)ccc3n2)cc1
96	2.5	-26	CC(C)C(=O)Nc1cccc(-c2nc3ccccc3o2)c1

(next part)
nr	MgrA DNA FP	S aureus helic	smiles
97	.	-5	CC1CCCC(C)N1Cn1nc2c(Cl)cc(Cl)cn2c1=S (stereo unspecified)
98	-2.5	.	CC(=Nc1ccc(Cl)cc1)c1ccccc1
99	.	21	Cc1nnc2c(N3CCCC3)nc3ccc(C(=O)c4ccccc4)cc3n12
100	0.1	.	COC(=O)c1ccccc1CS(C)(=O)=O
101	.	5	Oc1ccccc1CN1CCCCC1
102	.	-4	CS(=O)(=O)c1ccccc1C(=O)Nc1ccc(C(F)(F)F)cc1
103	0.0	5	CNS(=O)(=O)c1ccc(NC(=O)C2CC3C=CC2C3)cc1 (stereo unspecified)
104	.	-5	Cc1ccc(-c2n[nH]c(Cc3ccccc3)n2)cc1
105	.	-9	C[C@H](N=C1NS(=O)(=O)c2ccccc21)C(=O)OCc1cn2ccccc2n1
106	-8.5	-3	Cc1cccc(C[N+](C)(C)CCC(=O)c2ccccc2)c1
107	.	-11	CCN(C(=S)NCCN1CCOCC1)c1cccc2ccccc12
108	.	8	CN(C)c1ccc(/C(N)=N/O)cc1

Next results.
nr	MgrA DNA FP	S aureus helic	smiles
109	-1.9	10	COc1cccc(C2c3c(oc4ccc(C)cc4c3=O)C(=O)N2CCCN(C)C)c1 (stereo unspecified)
110	0.3	10	N#Cc1sc2nc(-c3ccncc3)ccc2c1N
111	.	-3	CCN(CC(=O)Nc1ccc(I)cc1)CC(=O)NC1CCS(=O)(=O)C1 (stereo unspecified)
112	-1.9	10	Oc1cccc(N=Cc2c[nH]c3ccccc23)c1
113	.	19	Cc1cc(C)n(C(=O)c2cc(-c3ccc(C)o3)nc3ccccc23)n1
114	.	27	CSc1nccc(-c2sc(SC)c(C#N)c2-c2ccccc2)n1
115	2.9	-4	COc1ccc(C2C3C(=O)N(c4ccccc4)C(=O)C3ON2c2ccccc2)cc1 (stereo unspecified)
116	0.6	5	O=C(O)c1ccc(S(=O)(=O)c2ccc(Cl)cc2)cc1
117	-0.8	.	COC(=O)c1csc2c(C(F)(F)F)cc(N3CCNCC3)nc12
118	-0.7	-14	CC1(C)CC(=O)C2=C(C1)Nc1ccccc1NC2/C=C/c1ccccc1 (stereo unspecified)
119	.	-9	COc1ccc2c(CC(=O)OC(C)C(N)=O)coc2c1 (stereo unspecified)
120	2.4	8	O=C(NCc1ccccc1)c1cccnc1N1CCOCC1

These rows are one share of the data. The share of hits here may be higher or lower than overall.
